Screens: PubChem BioAssay, Broad Institute
Vaccinia inh: blocks a specific stage of Vaccinia orthopoxvirus infection, primary screen, cell-based, single point; 0.01% of 89,000 active; Vaccinia-infected cells, mCherry/Venus stage reporter fluorescence; hits give low values; some inactives read as strong as hits; AID 1053133, 2014; activity change (mCherry), % (test concentration not listed);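 active means mCherry past -33% and 40 or more points under the early reporter, replicates agreeing; inconclusive means past -33% without that gap or agreement; tested in A549 cells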;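 further: scaled between vehicle wells and reference inhibitor wells; 23 nL library stock went into each well; one replicate is shown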
Vaccinia inh Venus: recorded beside Vaccinia inh, whose call it bears; activity change (Venus), %; measured here: Venus reporter, other viral stage;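 negative = less Venus signal; first of two replicates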
Active calls of the source: *; ? = inconclusive; . = not tested or not shown; & = joins results of further samples. An excerpt; the hit share may differ from the screen's.

#	SMILES	Vaccinia inh Venus	Vaccinia inh
1	C[C@H](CO)N1C[C@H](C)[C@H](CN(C)Cc2ccccc2)Oc2ccc(NC(=O)Nc3cccc4ccccc34)cc2CC1=O	-21	-30
2	COc1ccc(S(=O)(=O)Nc2ccc3c(c2)C(=O)N([C@H](C)CO)C[C@H](C)[C@H](CN(C)S(=O)(=O)c2cn(C)cn2)OCCCC[C@@H](C)O3)cc1	26	28
3	Cc1ccc(S(=O)(=O)Nc2ccc3c(c2)C(=O)N([C@@H](C)CO)C[C@H](C)[C@H](CN(C)S(=O)(=O)c2cccs2)OCCCC[C@H](C)O3)cc1	.	?
4	CCCN1C[C@@H](C)[C@@H](OC)CN(C)C(=O)c2cc(NC(=O)C3CC3)ccc2OC[C@@H]1C	-5	-3
5	CCS(=O)(=O)N1CCC2(CC1)CN(C(=O)Nc1c(C)noc1C)[C@@H](CO)c1[nH]c3cc(OC)ccc3c12	3	17
6	CN(C)C(=O)c1ccc(-c2ccc([C@@H]3[C@@H](CO)N4CCCCN(Cc5ccncc5)C[C@@H]34)cc2)cc1	6	6
7	N#C[C@H]1[C@@H](c2ccccc2)[C@@H](CO)N1S(=O)(=O)Cc1ccccc1	3	5
8	C[C@H]1CN([C@@H](C)CO)C(=O)Cc2cc(NS(=O)(=O)c3cn(C)cn3)ccc2O[C@H]1CN(C)S(C)(=O)=O	9	9
9	C[C@H]1CCCCO[C@@H](CN(C)Cc2ccccc2)[C@@H](C)CN([C@@H](C)CO)C(=O)c2cc(NS(=O)(=O)c3ccc(Cl)cc3)ccc2O1	.	?
10	CCC(=O)N1C[C@@H](C)[C@@H](OC)CN(C)C(=O)c2ccc(NC(=O)NC(C)C)cc2OC[C@@H]1C	7	0
11	O=C(C[C@H]1CC[C@H]2[C@@H](COC[C@H](O)CN2Cc2cccc(Cl)c2)O1)Nc1nccs1	4	-6
12	C[C@@H]1CN([C@@H](C)CO)C(=O)Cc2cc(NC(=O)c3ccncc3)ccc2O[C@@H]1CN(C)C(=O)Nc1ccc(C(F)(F)F)cc1	1	-4
13	O=C(C1CCOCC1)N1CC(=O)N2[C@H](CO)[C@@H](c3ccc(C#CC4CC4)cc3)[C@@H]2C1	-10	-18
14	COc1ccccc1CNC(=O)C[C@@H]1C=C[C@H](NC(=O)CN(C)C)[C@@H](CO)O1	-1	10
15	Cc1ccccc1CN(C)C[C@@H]1OCc2cnnn2CCCC(=O)N([C@H](C)CO)C[C@@H]1C	2	-7
16	C[C@@H]1CCCCO[C@H](CN(C)S(=O)(=O)c2cccs2)[C@H](C)CN([C@@H](C)CO)C(=O)c2cc(NS(C)(=O)=O)ccc2O1	8	11
17	C[C@@H](NC(=O)C[C@H]1C=C[C@@H](NC(=O)C2CC2)[C@H](CO)O1)c1ccccc1	-1	-3
18	O=C(N[C@H]1CC[C@H](CCNS(=O)(=O)c2ccccc2Cl)O[C@H]1CO)c1ccccc1	-11	-7
19	C[C@H]1CN([C@@H](C)CO)S(=O)(=O)c2ccc(C#Cc3ccncc3)cc2O[C@H]1CN(C)C(=O)c1ccncc1	-3	-16
20	O=C(CN1CCOCC1)N[C@@H]1CC[C@@H](CCNC(=O)C2CCCC2)O[C@H]1CO	2	5
21	C[C@H](CO)N1C[C@H](C)[C@@H](CN(C)Cc2ccncc2)Oc2cc(C3=CCCC3)ccc2S1(=O)=O	-3	-3
22	C[C@@H]1CN([C@@H](C)CO)C(=O)c2cccc(NC(=O)c3nc4ccccc4s3)c2O[C@@H]1CN(C)Cc1ccc(Oc2ccccc2)cc1	-11	-2
23	CN(C)CC(=O)Nc1ccc2c(c1)[C@@H]1C[C@@H](CC(=O)NCc3ccc(-c4ccccc4)cc3)O[C@H](CO)[C@@H]1O2	.	?
24	C[C@H]1CN([C@@H](C)CO)C(=O)Cc2cc(N(C)C)ccc2O[C@H]1CN(C)S(=O)(=O)c1cn(C)cn1	2	-3
25	CCC(=O)N(C)C[C@@H]1Oc2ncc(C#C[C@@H](C)O)cc2C(=O)N([C@H](C)CO)C[C@H]1C	14	12
26	Cc1ccccc1-c1ccc([C@H]2[C@@H](CO)N3CCCCN(S(=O)(=O)Cc4ccccc4)C[C@H]23)cc1	.	?
27	COc1ccc(NC(=O)N[C@H]2CC[C@@H](CC(=O)NCc3ccccn3)O[C@H]2CO)cc1	6	-1
28	C[C@@H]1CN([C@H](C)CO)C(=O)c2cc(NC(=O)CCCCCC(=O)Nc3ccccc3N)ccc2O[C@H]1CN(C)S(=O)(=O)c1ccc(Cl)cc1	17	17
29	CO[C@H](CN(C)C(=O)C1CCOCC1)[C@@H](C)CN(C(=O)Nc1ccc(F)cc1)[C@H](C)CO	9	14
30	C[C@@H]1CN([C@H](C)CO)C(=O)c2cccc(NC(=O)C3CCOCC3)c2O[C@@H]1CN(C)C(=O)Nc1ccc(C(F)(F)F)cc1	16	17
31	CN1[C@H](C(=O)Nc2nccs2)[C@@H](CO)[C@@H]2Cn3c(ccc(-c4ccccc4F)c3=O)[C@@H]21	4	10
32	C[C@H](O)C#Cc1cnc2c(c1)C(=O)N([C@H](C)CO)C[C@H](C)[C@@H](CN(C)C(=O)Nc1ccc(C(F)(F)F)cc1)O2	2	4
33	COCCNC(=O)C[C@H]1CC[C@H]2[C@@H](COc3ccc(NC(=O)COC)cc3C(=O)N2C)O1	4	7
34	C[C@@H]1CN([C@H](C)CO)C(=O)c2cc(NC(=O)NC3CCCCC3)ccc2O[C@@H]1CN(C)C(=O)Nc1ccc(F)cc1	2	6
35	CC(C)NC(=O)N(C)C[C@@H]1Oc2ncc(-c3ccccc3)cc2C(=O)N([C@H](C)CO)C[C@@H]1C	3	6
36	C[C@H](CO)N1C[C@H](C)[C@@H](CN(C)Cc2ccc3c(c2)OCO3)Oc2ccc(NS(=O)(=O)c3ccc(F)cc3)cc2C1=O	-1	15
37	CC(=O)N(C)C[C@@H]1Oc2cc(C#Cc3ccc(F)cc3)ccc2S(=O)(=O)N([C@H](C)CO)C[C@@H]1C	.	?
38	C[C@H](CO)N1C[C@H](C)[C@@H](CN(C)S(=O)(=O)c2ccc(F)cc2)Oc2ccc(NC(=O)Nc3ccc(F)cc3)cc2C1=O	-9	-7
39	O=C(C[C@H]1C[C@H]2c3cc(NC(=O)Cc4ccncc4)ccc3O[C@H]2[C@@H](CO)O1)NCc1ccccn1	-5	5
40	COc1ccccc1CNC(=O)C[C@H]1C[C@@H]2c3cc(NC(=O)c4cccnc4)ccc3O[C@@H]2[C@@H](CO)O1	2	-3

Ordered by formula weight (falling): some entries from above.
#	SMILES	Vaccinia inh Venus	Vaccinia inh
30	C[C@@H]1CN([C@H](C)CO)C(=O)c2cccc(NC(=O)C3CCOCC3)c2O[C@@H]1CN(C)C(=O)Nc1ccc(C(F)(F)F)cc1	16	17
38	C[C@H](CO)N1C[C@H](C)[C@@H](CN(C)S(=O)(=O)c2ccc(F)cc2)Oc2ccc(NC(=O)Nc3ccc(F)cc3)cc2C1=O	-9	-7
36	C[C@H](CO)N1C[C@H](C)[C@@H](CN(C)Cc2ccc3c(c2)OCO3)Oc2ccc(NS(=O)(=O)c3ccc(F)cc3)cc2C1=O	-1	15
34	C[C@@H]1CN([C@H](C)CO)C(=O)c2cc(NC(=O)NC3CCCCC3)ccc2O[C@@H]1CN(C)C(=O)Nc1ccc(F)cc1	2	6
39	O=C(C[C@H]1C[C@H]2c3cc(NC(=O)Cc4ccncc4)ccc3O[C@H]2[C@@H](CO)O1)NCc1ccccn1	-5	5
35	CC(C)NC(=O)N(C)C[C@@H]1Oc2ncc(-c3ccccc3)cc2C(=O)N([C@H](C)CO)C[C@@H]1C	3	6
29	CO[C@H](CN(C)C(=O)C1CCOCC1)[C@@H](C)CN(C(=O)Nc1ccc(F)cc1)[C@H](C)CO	9	14
33	COCCNC(=O)C[C@H]1CC[C@H]2[C@@H](COc3ccc(NC(=O)COC)cc3C(=O)N2C)O1	4	7
31	CN1[C@H](C(=O)Nc2nccs2)[C@@H](CO)[C@@H]2Cn3c(ccc(-c4ccccc4F)c3=O)[C@@H]21	4	10

Going on with the list.
#	SMILES	Vaccinia inh Venus	Vaccinia inh
41	COc1ccc(NC(=O)N[C@H]2C=C[C@@H](CC(=O)NC3CCC3)O[C@@H]2CO)cc1	9	5
42	C[C@H]1CN([C@@H](C)CO)C(=O)Cc2cc(NS(=O)(=O)c3ccccc3)ccc2O[C@H]1CN(C)S(=O)(=O)c1cccs1	-8	-7
43	CC(C)CC#Cc1cnc2c(c1)C(=O)N([C@H](C)CO)C[C@H](C)[C@@H](CN(C)C(=O)Nc1cccc(F)c1)O2	0	-5
44	CN1C(=O)c2cc(NC(=O)c3cccc(F)c3)ccc2OC[C@H]2O[C@@H](CC(=O)NCc3ccccc3Cl)CC[C@H]21	-21	-19
45	Cc1noc(C)c1NC(=O)Nc1ccc2c(c1)C(=O)N([C@@H](C)CO)C[C@@H](C)[C@@H](CN(C)C(=O)Nc1cccc3ccccc13)O2	7	15
46	CN1CCCCN2[C@@H](CO)[C@@H](c3ccc(-c4ccc(F)cc4)cc3)[C@@H]2C1	.	?
47	C[C@@H]1CN([C@H](C)CO)C(=O)c2cccc(NC(=O)Nc3ccc(C(F)(F)F)cc3)c2O[C@H]1CN(C)C	6	1
48	COc1ccc(S(=O)(=O)N2C[C@H](O)COC[C@H]3O[C@H](CC(=O)NCCCN(C)C)CC[C@@H]32)cc1	-3	-1
49	CCCN1[C@@H]2c3ccc(-c4ccc(F)cc4)c(=O)n3C[C@@H]2[C@@H](CO)[C@@H]1C(=O)N[C@@H](C)c1ccccc1	.	?
50	O=C(c1ccc2c(c1)OCO2)N1CC(=O)N2[C@H](CO)[C@H](c3ccc(C#CCC4CCCC4)cc3)[C@@H]2C1	.	?
51	CCCC(=O)Nc1ccc2c(c1)OC[C@@H](C)N(C(=O)C1CCCC1)C[C@@H](C)[C@H](OC)CN(C)C2=O	10	4
52	CC(C)NC[C@@H]1[C@@H](c2ccc(C3=CCCCC3)cc2)[C@@H](CO)N1C(=O)CC1CC1	3	-6
53	CN(C)c1ccc2c(c1)[C@H]1C[C@@H](CC(=O)N3CCc4ccccc4C3)O[C@@H](CO)[C@H]1O2	5	5
54	C[C@H]1CN([C@@H](C)CO)C(=O)c2cc(-c3ccc(F)cc3)cnc2O[C@@H]1CN(C)S(C)(=O)=O	11	18
55	CCCNC(=O)N1C[C@H](C)[C@H](OC)CN(C)C(=O)c2cc(NC(C)=O)ccc2OC[C@H]1C	0	0
56	C[C@H](CO)N1C[C@H](C)[C@@H](CN(C)S(=O)(=O)c2ccc(F)cc2)Oc2ccc(NC(=O)CCCN(C)C)cc2CC1=O	1	-5
57	C[C@H](CO)N1C[C@H](C)[C@H](CN(C)Cc2ccc(C(F)(F)F)cc2)Oc2ccc(NC(=O)c3ccncc3)cc2C1=O	6	13
58	O=C(CCN1CCCCC1)NCC[C@@H]1CC[C@@H](NC(=O)C2CCC2)[C@H](CO)O1	14	1
59	O=C(C[C@H]1C[C@@H]2c3cc(NC(=O)NC4CCCC4)ccc3O[C@@H]2[C@H](CO)O1)NCc1ccccc1	8	11
60	COCC(=O)N(C)C[C@H]1Oc2ncc(-c3ccccc3C)cc2C(=O)N([C@@H](C)CO)C[C@@H]1C	3	11
61	CCCNC(=O)C[C@H]1C[C@H]2c3cc(NS(=O)(=O)c4ccc(F)cc4)ccc3O[C@H]2[C@@H](CO)O1	-2	7
62	C[C@@H]1CN([C@H](C)CO)C(=O)Cc2cc(NC(=O)Nc3cccc4ccccc34)ccc2O[C@@H]1CN(C)S(=O)(=O)c1ccc(Cl)cc1	3	-1
63	CCC(=O)Nc1ccc2c(c1)C(=O)N(C)[C@@H]1CC[C@H](CC(=O)NCCc3ccccc3)O[C@@H]1CO2	4	0
64	C[C@H](CO)N1C[C@H](C)[C@H](CN(C)Cc2ccc(Cl)c(Cl)c2)Oc2ccc(NC(=O)c3ccncc3)cc2C1=O	.	?
65	CN1[C@H](C(=O)N2CCOCC2)[C@@H](CO)[C@@H]2Cn3c(ccc(/C=C/c4ccccc4)c3=O)[C@@H]21	7	-5
66	C[C@H](O)C#Cc1cnc2c(c1)C(=O)N([C@H](C)CO)C[C@H](C)[C@@H](CN(C)Cc1cccc(F)c1)O2	-1	13
67	COc1cccc(-c2ccc3c(c2)[C@H]2[C@H](CCN2S(=O)(=O)c2ccccc2C)[C@H](CO)N3C)c1	.	?
68	Cc1ccc(S(=O)(=O)N(C)C[C@H]2Oc3ccc(NC(=O)CCCCCC(=O)Nc4ccccc4N)cc3CC(=O)N([C@H](C)CO)C[C@@H]2C)cc1	23	20
69	COc1ccc(-c2cnc3c(c2)C(=O)N([C@H](C)CO)C[C@@H](C)[C@H](CN(C)Cc2ccccc2)O3)cc1	2&-20	7&-18
70	O=C(Cc1ccccc1)N1CCCCN2[C@@H](CO)[C@@H](c3ccc(C#Cc4ccccc4)cc3)[C@@H]2C1	-36	-33
71	COC(=O)C[C@H]1CC[C@@H]2NC[C@@H](O)COC[C@H]2O1	4	-1
72	CC(C)C#Cc1ccc2c(c1)O[C@@H](CN(C)C)[C@@H](C)CN([C@@H](C)CO)S2(=O)=O	-4	-4
73	C[C@H](CO)N1C[C@H](C)[C@@H](CN(C)C(=O)C2CCCCC2)Oc2ncc(C#CC3(O)CCCC3)cc2C1=O	3	5
74	COc1cccc(-c2ccc([C@@H]3[C@@H](CO)N(C(=O)Cc4ccccc4)[C@H]3C#N)cc2)c1	-36	-34
75	CO[C@H]1CN(C)C(=O)c2ccc(NS(=O)(=O)c3cn(C)cn3)cc2OC[C@H](C)N(Cc2cccc(F)c2)C[C@H]1C	1	7
76	C[C@H]1CN([C@@H](C)CO)C(=O)CCCn2nncc2CO[C@@H]1CN(C)C(=O)CCCN(C)C	6	12
